Polio RdRp inh – poliovirus RdRp elongation inhibitors, primary screen, biochemical, fluorescence polarization, total intensity; Genome polyprotein (Poliovirus type 1 (strain Mahoney)), P03300; poliovirus polymerase elongation; active compounds read low; % elongation, % (compound at 16.7 µg/mL); actives 0.66% (n = 150,000); AID 588519, 2011; in the data active = % elongation below about 90%; also: some results filed as inactive read as strong as hits
Target sequence (P03300 1749-2209 limits assumed): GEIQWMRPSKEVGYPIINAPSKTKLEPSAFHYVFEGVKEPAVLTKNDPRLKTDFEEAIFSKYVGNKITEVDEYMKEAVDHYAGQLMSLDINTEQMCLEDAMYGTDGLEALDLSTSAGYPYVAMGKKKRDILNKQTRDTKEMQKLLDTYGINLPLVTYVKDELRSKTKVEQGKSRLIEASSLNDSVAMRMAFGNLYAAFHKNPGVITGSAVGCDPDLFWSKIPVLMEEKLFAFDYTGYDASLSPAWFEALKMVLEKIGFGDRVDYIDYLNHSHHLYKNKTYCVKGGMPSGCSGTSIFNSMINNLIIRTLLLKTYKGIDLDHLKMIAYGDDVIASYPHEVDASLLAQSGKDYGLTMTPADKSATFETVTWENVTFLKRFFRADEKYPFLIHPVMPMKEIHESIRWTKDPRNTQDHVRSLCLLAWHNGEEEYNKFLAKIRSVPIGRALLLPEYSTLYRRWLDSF
Polio RdRp inh intensity – recorded beside Polio RdRp inh, whose call it bears; % elongation; measured here: total intensity read-out; formula for this scale not given here;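 total fluorescence in place of polarization; lower means less elongation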
Numbers without * were called inactive.

How did O=C(CSc1nnc(CNC(=O)c2cccc(F)c2)n1-c1ccccc1)Nc1ccccc1F do in these assays?
Polio RdRp inh: 104; Polio RdRp inh intensity: 108

Results for CCOc1ccc(-n2c(=O)c3c(C)c(C)sc3n(CC(=O)NCCc3ccccc3)c2=O)cc1 ?
Polio RdRp inh: 108; Polio RdRp inh intensity: 112

What do the screens show for `COc1cc2c(=O)n(CCC(=O)NCC3CCCO3)c(=O)n(CC(=O)Nc3ccc(C)cc3C)c2cc1OC` (stereo unspecified)?
Polio RdRp inh: 104; Polio RdRp inh intensity: 104

Results for Cc1ccc(Cn2cc(CCC(=O)NCc3ccc(OC(C)C)cc3)c3ccccc32)cc1 ?
Polio RdRp inh: 116; Polio RdRp inh intensity: 116

How did Cc1c(C(=O)NCc2ccccc2)oc2ccc(S(=O)(=O)N3CCC(C)CC3)cc12 do in these assays?
Polio RdRp inh: 110; Polio RdRp inh intensity: 112

Results for O=C1CC(c2nnc(Cc3ccc(F)cc3)o2)CN1c1ccccc1 (stereo unspecified) ?
Polio RdRp inh: 106; Polio RdRp inh intensity: 106

Results for CC(C)(C)c1ccc(Oc2ccc(NC(=O)CCC(=O)OCC(=O)c3ccccc3)cc2)cc1 ?
Polio RdRp inh: 108; Polio RdRp inh intensity: 113

What do the screens show for `CCn1c(CC2C(=O)Nc3ccccc32)nc2ccccc2c1=O` (stereo unspecified)?
Polio RdRp inh: 108; Polio RdRp inh intensity: 116

Results for CC(C)(C)c1ccc(S(=O)(=O)N2CCC(Oc3ccc(-n4cnnn4)cc3)CC2)cc1 ?
Polio RdRp inh: 111; Polio RdRp inh intensity: 110

How did O=C(NCC(c1cccnc1)N1CCc2ccccc21)c1ccccc1Br (stereo unspecified) do in these assays?
Polio RdRp inh: 110; Polio RdRp inh intensity: 111

Results for Cc1cc(C)n2nc(CNC(=O)c3c(F)cccc3F)nc2n1 ?
Polio RdRp inh: 104; Polio RdRp inh intensity: 103

How did N#Cc1nc(-c2ccc(COc3ccccc3)o2)oc1NCc1ccccc1 do in these assays?
Polio RdRp inh: 108; Polio RdRp inh intensity: 106

Results for Nc1c(-c2nc(-c3ccc(Cl)cc3)cs2)c2ccccn2c1C(=O)c1ccc2c(c1)OCO2 ?
Polio RdRp inh: 104; Polio RdRp inh intensity: 113

How did Cc1cccc(NC(=O)N2CCC(CN3CCOCC3)CC2)c1C do in these assays?
Polio RdRp inh: 115; Polio RdRp inh intensity: 117

What do the screens show for `COc1cccc(CNC(=O)CN2C(=O)CCCc3ccccc32)c1OC`?
Polio RdRp inh: 101; Polio RdRp inh intensity: 98

What do the screens show for `COc1cccc(/C=C/c2onc(C)c2S(=O)(=O)N2CCC(C(=O)N3CCC(C)CC3)CC2)c1`?
Polio RdRp inh: 106; Polio RdRp inh intensity: 113

What do the screens show for `Cc1cc(C)cc(NC(=O)c2cc(S(=O)(=O)N3CCCCCC3)cn2C)c1`?
Polio RdRp inh: 106; Polio RdRp inh intensity: 104

How did COc1ccc(OC)c(NC(=O)c2c(NCc3ccc(OC)c(OC)c3)sc3c2CCC(C)C3)c1 (stereo unspecified) do in these assays?
Polio RdRp inh: 104; Polio RdRp inh intensity: 107

How did COc1ccc(-n2nc3ccc(NC(=O)c4cccc(OCCC(C)C)c4)cc3n2)cc1 do in these assays?
Polio RdRp inh: 107; Polio RdRp inh intensity: 107

How did CCOc1ccc(-c2cc(C(=O)NCCCOC)c3c(-c4ccc(CC)cc4)[nH]nc3n2)cc1 do in these assays?
Polio RdRp inh: 109; Polio RdRp inh intensity: 115

Results for COc1cc(-c2nnc(SCC(=O)Nc3ccc(F)c(Cl)c3)o2)cc(OC)c1OC ?
Polio RdRp inh: 108; Polio RdRp inh intensity: 100

Results for CCOc1ccc(NC(=O)c2cc3c(=O)n4cccc(C)c4nc3s2)cc1 ?
Polio RdRp inh: 105; Polio RdRp inh intensity: 105

Results for CC(C)Oc1ccc(CNC(=O)Cn2c(=O)oc3ccccc32)cc1 ?
Polio RdRp inh: 108; Polio RdRp inh intensity: 112

How did O=C(CN1C(=O)CCn2nc(-c3ccccc3)cc21)NCc1ccccc1 do in these assays?
Polio RdRp inh: 116; Polio RdRp inh intensity: 110

How did CC(C)(C)NC(=O)c1ccc2nc(CCc3ccccc3)oc2c1 do in these assays?
Polio RdRp inh: 106; Polio RdRp inh intensity: 109

Results for COc1ccccc1OCC(=O)NCC(c1ccc(Cl)cc1)N1CCCCC1 (stereo unspecified) ?
Polio RdRp inh: 105; Polio RdRp inh intensity: 112

What do the screens show for `COc1ccc2c(c1)c(=O)c(C(=O)c1ccc(F)cc1)cn2CC(=O)Nc1ccc2c(c1)OCCO2`?
Polio RdRp inh: 108; Polio RdRp inh intensity: 111

What do the screens show for `CCc1nn(C(C)C(=O)N2CCN(c3ccccc3)CC2)c(=O)c2cc3occc3n12` (stereo unspecified)?
Polio RdRp inh: 104; Polio RdRp inh intensity: 104

How did CCOc1ccc(N2CC(C)Cn3c2nc2c3c(=O)n(CC(=O)O)c(=O)n2C)cc1 (stereo unspecified) do in these assays?
Polio RdRp inh: 106; Polio RdRp inh intensity: 106

Results for CC(C)c1ccc(NC(=O)C(C)N(c2ccccc2)S(C)(=O)=O)cc1 (stereo unspecified) ?
Polio RdRp inh: 103; Polio RdRp inh intensity: 104

What do the screens show for `CCOC(=O)c1ccccc1NC(=O)c1nn(-c2ccc(C)cc2)c(=O)n(C)c1=O`?
Polio RdRp inh: 113; Polio RdRp inh intensity: 106

Results for CC(=O)N1CCN(c2nc3c(C)ccc(Cl)c3s2)CC1 ?
Polio RdRp inh: 109; Polio RdRp inh intensity: 108

Results for Cc1nnc2c3ccccc3nc(Nc3ccc(F)cc3Cl)n12 ?
Polio RdRp inh: 109; Polio RdRp inh intensity: 112

What do the screens show for `Fc1ccc(N2CCN(c3nc4ccccc4c4nc(-c5cccnc5)nn34)CC2)cc1`?
Polio RdRp inh: 104; Polio RdRp inh intensity: 109

Results for COc1ccc(OC)c(S(=O)(=O)NCc2cccn2Cc2cccc(C)c2)c1 ?
Polio RdRp inh: 108; Polio RdRp inh intensity: 106

What do the screens show for `O=C(CCn1c(=O)c2sccc2n(Cc2ccc(F)cc2Cl)c1=O)NCc1ccc2c(c1)OCO2`?
Polio RdRp inh: 110; Polio RdRp inh intensity: 113

What do the screens show for `COc1cccc(N(CC(=O)N2CCC(C)CC2)S(=O)(=O)c2ccc(C)cc2)c1`?
Polio RdRp inh: 104; Polio RdRp inh intensity: 107

What do the screens show for `O=C(CNS(=O)(=O)c1cccs1)N1CCN(c2ccccc2F)CC1`?
Polio RdRp inh: 108; Polio RdRp inh intensity: 108

What do the screens show for `COc1ccc(S(=O)(=O)NCCc2sc(-c3ccccc3)nc2C)cc1OC`?
Polio RdRp inh: 106; Polio RdRp inh intensity: 105

Results for Cc1ccc(OCCSc2nnc(-c3cccs3)o2)cc1 ?
Polio RdRp inh: 107; Polio RdRp inh intensity: 106

What do the screens show for `CCOc1cc(C2c3c(oc4ccccc4c3=O)C(=O)N2c2ccccn2)ccc1O` (stereo unspecified)?
Polio RdRp inh: 104; Polio RdRp inh intensity: 103

How did Cc1ccccc1OCC(=O)Nc1ccc(-c2nc3cc(Cl)cc(Cl)c3o2)cc1 do in these assays?
Polio RdRp inh: 99; Polio RdRp inh intensity: 89

How did N#Cc1cc2c(nc1SCC(=O)Nc1ccc(C(F)(F)F)cc1)C1CCN2CC1 do in these assays?
Polio RdRp inh: 105; Polio RdRp inh intensity: 109

How did CCc1cccc(N2C(=O)N(CC(=O)NCc3cccc(OC)c3OC)c3ccccc3S2(=O)=O)c1 do in these assays?
Polio RdRp inh: 109; Polio RdRp inh intensity: 110

How did Cc1ccc(-c2noc(CN(C(=O)COc3cc(C)cc(C)c3C)C(C)C)n2)cc1 do in these assays?
Polio RdRp inh: 103; Polio RdRp inh intensity: 112

What do the screens show for `CN(C)S(=O)(=O)N(CC(=O)Nc1ccc(Br)cc1F)c1ccccc1`?
Polio RdRp inh: 102; Polio RdRp inh intensity: 104

Results for COCCNC(=O)c1cc2n(n1)CCCN(Cc1ccc(C)cc1)C2=O ?
Polio RdRp inh: 107; Polio RdRp inh intensity: 112

How did CCc1ccc(NC(=O)c2cc(C)nn2-c2ccccc2)cc1 do in these assays?
Polio RdRp inh: 110; Polio RdRp inh intensity: 112

What do the screens show for `COC(=O)c1ccc(NC(=O)CN(c2cccc(C(F)(F)F)c2)S(C)(=O)=O)cc1`?
Polio RdRp inh: 107; Polio RdRp inh intensity: 113

How did C=CCc1ccccc1OCCSc1nc(-c2ccc(C(C)(C)C)cc2)nc2cc(=O)[nH]n12 do in these assays?
Polio RdRp inh: 105; Polio RdRp inh intensity: 103

Results for CCN(C(=O)c1cc2cc(Br)cc(OC)c2oc1=O)c1ccccc1 ?
Polio RdRp inh: 107; Polio RdRp inh intensity: 110

Results for COc1ccc(N(CC(=O)NC(C)c2ccccc2)S(=O)(=O)c2c(C)nn(C)c2C)cc1 (stereo unspecified) ?
Polio RdRp inh: 104; Polio RdRp inh intensity: 107

What do the screens show for `O=C(NC1CCCCC1)c1ccc2c(c1)N(Cc1ccccc1F)C(=O)c1ccccc1S2`?
Polio RdRp inh: 108; Polio RdRp inh intensity: 110

Results for CC(=O)c1cccc(NC(=O)c2ccc3c(c2)N(Cc2ccc(C)cc2)CCS3)c1 ?
Polio RdRp inh: 102; Polio RdRp inh intensity: 113

What do the screens show for `CCc1ccccc1NC(=O)CN1C(=O)CCc2cc(S(=O)(=O)N3CCCCC3)ccc21`?
Polio RdRp inh: 107; Polio RdRp inh intensity: 108

What do the screens show for `Cc1ccc(C(=O)N2CCN(c3ccccc3)CC2)cc1NC(=O)c1nsc2ccccc12`?
Polio RdRp inh: 108; Polio RdRp inh intensity: 114

What do the screens show for `COc1cccc(-c2cc(C(=O)N3CCN(c4ccc(F)cc4)CC3)no2)c1`?
Polio RdRp inh: 104; Polio RdRp inh intensity: 106

How did Cc1cc(C)cc(N2CC(c3nnc(NC(=O)c4ccco4)s3)CC2=O)c1 (stereo unspecified) do in these assays?
Polio RdRp inh: 103; Polio RdRp inh intensity: 108

What do the screens show for `Clc1ccc(-c2noc(-c3cccnc3NCc3ccco3)n2)cc1`?
Polio RdRp inh: 103; Polio RdRp inh intensity: 110

How did Cc1ccccc1C(=O)Nc1cccc(NC(=O)c2ccc(C(C)(C)C)cc2)c1 do in these assays?
Polio RdRp inh: 101; Polio RdRp inh intensity: 107

Overlap with the part before: 6 compounds, then new ones.
What do the screens show for `CCc1ccccc1NC(=O)CN1C(=O)CCc2cc(S(=O)(=O)N3CCCCC3)ccc21`?
Polio RdRp inh: 107; Polio RdRp inh intensity: 108

What do the screens show for `Cc1ccc(C(=O)N2CCN(c3ccccc3)CC2)cc1NC(=O)c1nsc2ccccc12`?
Polio RdRp inh: 108; Polio RdRp inh intensity: 114

What do the screens show for `COc1cccc(-c2cc(C(=O)N3CCN(c4ccc(F)cc4)CC3)no2)c1`?
Polio RdRp inh: 104; Polio RdRp inh intensity: 106

How did Cc1cc(C)cc(N2CC(c3nnc(NC(=O)c4ccco4)s3)CC2=O)c1 (stereo unspecified) do in these assays?
Polio RdRp inh: 103; Polio RdRp inh intensity: 108

What do the screens show for `Clc1ccc(-c2noc(-c3cccnc3NCc3ccco3)n2)cc1`?
Polio RdRp inh: 103; Polio RdRp inh intensity: 110

How did Cc1ccccc1C(=O)Nc1cccc(NC(=O)c2ccc(C(C)(C)C)cc2)c1 do in these assays?
Polio RdRp inh: 101; Polio RdRp inh intensity: 107

How did Cn1c(=O)cc(SCC(=O)N2CCN(c3ccc(F)cc3)CC2)c2ccc(Cl)cc21 do in these assays?
Polio RdRp inh: 106; Polio RdRp inh intensity: 110

What do the screens show for `CCOC(=O)c1ccc(N2C(=O)c3[nH]nc(-c4ccc(C)cc4)c3C2c2cccs2)cc1` (stereo unspecified)?
Polio RdRp inh: 110; Polio RdRp inh intensity: 111

How did COc1cccc(C2C=C(c3ccc(C)cc3)Nc3c(C(=O)Nc4ccc(F)cc4)cnn32)c1OC (stereo unspecified) do in these assays?
Polio RdRp inh: 100; Polio RdRp inh intensity: 111

What do the screens show for `Cc1ccc(NCc2cccn2-c2nnc(N3CCC(C(=O)NCc4ccccc4C)CC3)s2)cc1`?
Polio RdRp inh: 109; Polio RdRp inh intensity: 109

How did COc1ccccc1NC(=O)CSc1nnc2c(n1)[nH]c1ccccc12 do in these assays?
Polio RdRp inh: 104; Polio RdRp inh intensity: 105

What do the screens show for `CCc1ccc(N2C(=O)CSC23C(=O)N(Cc2cccc(OC)c2)c2ccccc23)cc1` (stereo unspecified)?
Polio RdRp inh: 105; Polio RdRp inh intensity: 102

Results for COc1ccc(Nc2c(-c3cc(Br)ccc3O)nc3ncccn23)cc1OC ?
Polio RdRp inh: 113; Polio RdRp inh intensity: 108

What do the screens show for `Cc1ccc(OCC(=O)Nc2cccc(OCc3cc(=O)n4cccc(C)c4n3)c2)cc1C`?
Polio RdRp inh: 104; Polio RdRp inh intensity: 104

What do the screens show for `Cc1ccccc1CN1CCC(CNc2ncnc3onc(-c4ccc(F)cc4)c23)CC1`?
Polio RdRp inh: 101; Polio RdRp inh intensity: 97

How did CCOc1ccc(N(CC)C(=O)c2cc3c(s2)-c2ccc(Cl)cc2SC3)cc1 do in these assays?
Polio RdRp inh: 113; Polio RdRp inh intensity: 108

How did Cc1ccccc1CNC(=O)c1oc2c(c1C)-c1nn(Cc3ccc(Cl)cc3)cc1CC2 do in these assays?
Polio RdRp inh: 105; Polio RdRp inh intensity: 111

How did COc1cc2c(cc1OC)C(c1ccc(F)cc1)N(c1ccccc1)C(=O)C2 (stereo unspecified) do in these assays?
Polio RdRp inh: 99; Polio RdRp inh intensity: 104

How did COc1ccc(C)cc1NC(=O)CCc1c(C)nn(-c2ccc(N3CCCCC3)nn2)c1C do in these assays?
Polio RdRp inh: 102; Polio RdRp inh intensity: 106

These rows are one share of the data. The share of hits here may be higher or lower than overall.
